MgrA-DNA mod = S. aureus MgrA-DNA binding modulation | fluorescence polarization | inhibition, %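 (about 10 µg/mL by stock and volumes)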 | 0.13% of 84,000 active | AID 602314;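 active = above 50% in either of two replicates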;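 note: 0% = protein plus DNA without compound and 100% = DNA alone without protein; higher means less MgrA bound to DNA so lower polarization; one replicate is shown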
S aureus helic = S. aureus DNA helicase inhibition; purified S. aureus helicase, fluorescence unwinding assay; about half of the hits fall short of the stated cut; inhibition, %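 (tested at about 80 µM)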; 0.05% of 120,000 active; AID 485395;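 active = both duplicates at 50% or more, or one of them with a favoured structure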;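 note: 0% = mean of negative control wells and 100% = mean of positive control wells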
* marks the source's active call; other numbers are inactive results; & = joins results of further samples. These rows are one share of the data (hit frequency here may not be typical).

What do the screens show for `Cc1ccccc1/C=N/n1c(C)cc(C)c(C#N)c1=O`?
MgrA-DNA mod: 4.2; S aureus helic: 5

How did CCOC(=O)c1cc(CN2CCOCC2)oc1-c1ccccc1 do in these assays?
MgrA-DNA mod: -9.6; S aureus helic: 6

Results for O=C(O)c1ccc(NC(=O)c2ccc[n+]([O-])c2)cc1 ?
MgrA-DNA mod: -0.6; S aureus helic: -17

What do the screens show for `NS(=O)(=O)c1ccc(CCNC(=O)CN2CCCc3ccccc32)cc1`?
S aureus helic: 1

How did CCN1CCN(CCNC(=O)Nc2ccc(Cl)cc2)CC1 do in these assays?
MgrA-DNA mod: -2.0; S aureus helic: -8

What do the screens show for `O=C(CN1C(=O)S/C(=C\c2cccs2)C1=O)OCC(=O)c1ccc[nH]1`?
S aureus helic: 16

How did COCc1cc(=O)n2[nH]c(-c3cccs3)cc2n1 do in these assays?
MgrA-DNA mod: -0.4

Results for COc1ccccc1NC(=O)CO/N=C(\C)c1cccs1 ?
S aureus helic: -11

Results for CC1CCN(S(=O)(=O)c2ccc(NC(=O)c3ccc(C(C)(C)C)cc3)cc2)CC1 ?
MgrA-DNA mod: 1.4; S aureus helic: -7

How did c1ccc(CCSCc2nc3ccccc3[nH]2)cc1 do in these assays?
MgrA-DNA mod: 0.7; S aureus helic: -6

Results for CCC(Sc1ncccc1C(=O)OC(C)C)C(=O)NCc1ccco1 (stereo unspecified) ?
MgrA-DNA mod: 1.6; S aureus helic: 9

How did NCCNS(=O)(=O)c1cccc2c(Cl)cccc12 do in these assays?
MgrA-DNA mod: 1.9

How did O=C(NCCNCc1ccccc1)c1ccco1 do in these assays?
MgrA-DNA mod: -12; S aureus helic: -1

What do the screens show for `COc1ccc(C2C(C(=O)O)c3ccccc3C(=O)N2Cc2ccc(Cl)cc2)cc1` (stereo unspecified)?
MgrA-DNA mod: 1.1

What do the screens show for `CCOC(=O)c1c(CN2CCOCC2)n(C)c2ccc(O)cc12`?
MgrA-DNA mod: -0.1; S aureus helic: -8

How did c1cc2c(cc1CNC1=NCCC1)OCO2 do in these assays?
S aureus helic: -5

Results for OC1(c2ccccc2)CCCCC1 ?
MgrA-DNA mod: -0.6

Results for Cc1nnc(SC/C=C/c2ccccc2)[nH]c1=O ?
S aureus helic: 14

How did O=C1c2ccccc2C(=O)N1CC(=O)N1c2ccccc2Sc2ccccc21 do in these assays?
MgrA-DNA mod: -0.9; S aureus helic: 0

What do the screens show for `O=C(Cn1c(=O)oc2ccccc21)N1CCC(c2ccccc2)C1` (stereo unspecified)?
S aureus helic: 7

How did CC1CC(C)CN(C(=O)c2cc(-c3ccccn3)nc3ccccc23)C1 (stereo unspecified) do in these assays?
MgrA-DNA mod: -0.6; S aureus helic: 26

What do the screens show for `O=C(Nc1n[nH]c(C(=O)O)n1)c1ccc(Br)cc1`?
MgrA-DNA mod: -2.3

What do the screens show for `CCn1c(=O)n(CC)c2cc(NC(=O)Cn3cnc4ccccc43)ccc21`?
MgrA-DNA mod: -4.8; S aureus helic: 17

What do the screens show for `CCOC(=O)C1(C2(O)C(=O)c3ccccc3C2=O)CCCC1=O` (stereo unspecified)?
MgrA-DNA mod: -0.1; S aureus helic: 6

What do the screens show for `c1ccc(CSc2nncn2-c2ccc3c(c2)OCCO3)cc1`?
MgrA-DNA mod: -0.6

Results for O=C(Cn1c(=O)c2cccn2c2ccc(F)cc21)NCCN1CCCCCC1 ?
S aureus helic: 16

Results for Cc1ccc(-n2c(SCc3cc(C)on3)nc3sc(C)c(C)c3c2=O)c(C)c1 ?
S aureus helic: 29

What do the screens show for `COC(=O)Cn1cnc2c(nnn2Cc2ccc(Cl)cc2)c1=O`?
MgrA-DNA mod: -0.7; S aureus helic: 7

Results for CC(O)c1nc2ccccc2n1Cc1ccc(Cl)cc1Cl (stereo unspecified) ?
MgrA-DNA mod: 0.2; S aureus helic: 22

How did CC(C)(C)c1nnc(-c2cccc(NS(=O)(=O)c3ccc(-c4ccon4)s3)c2)o1 do in these assays?
MgrA-DNA mod: -0.9

How did O=C1CCCCC(=O)c2ccccc2N1 do in these assays?
MgrA-DNA mod: -3.2; S aureus helic: 5

What do the screens show for `CCOC(=O)/C(C#N)=N/Nc1ccc(SC(F)F)cc1`?
S aureus helic: 10

What do the screens show for `O=C(Nc1ccccc1-c1nc2ccccc2[nH]1)c1ccc(C(=O)c2ccccc2)cc1`?
MgrA-DNA mod: 1.3

What do the screens show for `N#Cc1c(F)cccc1NCc1cccnc1`?
MgrA-DNA mod: 1.7

What do the screens show for `CCC1SC(CC)C(=O)N(CC(=O)NC2CCCCC2)C1=O` (stereo unspecified)?
S aureus helic: 8

How did CCOC(=O)C(C(=O)O)C1CCCCC1 (stereo unspecified) do in these assays?
S aureus helic: 3

What do the screens show for `COc1ccc(C2=NCC(CSc3nnnn3C)S2)cc1` (stereo unspecified)?
S aureus helic: -4

Results for CCCc1oc2cc(O)ccc2c(=O)c1Oc1ccc(F)cc1 ?
S aureus helic: 1

What do the screens show for `Cc1ccc(N2CC(=O)Nc3c(oc4nc(-c5ccccc5)cc(C)c34)C2=O)cc1`?
S aureus helic: 5

Results for COc1ccc(Br)c(-c2nc(-c3ccccc3)no2)c1 ?
MgrA-DNA mod: 0.3

Of the compounds above, four have a furan ring, fused or not.
How did CCOC(=O)c1cc(CN2CCOCC2)oc1-c1ccccc1 do in these assays?
MgrA-DNA mod: -9.6; S aureus helic: 6

Results for CCC(Sc1ncccc1C(=O)OC(C)C)C(=O)NCc1ccco1 (stereo unspecified) ?
MgrA-DNA mod: 1.6; S aureus helic: 9

How did O=C(NCCNCc1ccccc1)c1ccco1 do in these assays?
MgrA-DNA mod: -12; S aureus helic: -1

What do the screens show for `Cc1ccc(N2CC(=O)Nc3c(oc4nc(-c5ccccc5)cc(C)c34)C2=O)cc1`?
S aureus helic: 5

(next part)
Results for COc1ccc(S(=O)(=O)c2ccc(O)cc2)cc1 ?
MgrA-DNA mod: 2.0; S aureus helic: 2

What do the screens show for `Cc1nccn1CCN`?
MgrA-DNA mod: 1.0; S aureus helic: 4

Results for O=C1c2cccc3cccc(c23)C(=O)N1c1ccc2c(c1)OCO2 ?
S aureus helic: 12

What do the screens show for `COC(=O)C1C(=O)NC(S)=C(C#N)C1c1ccccc1Cl` (stereo unspecified)?
MgrA-DNA mod: 48; S aureus helic: 4

What do the screens show for `COC(=O)c1cc(-c2ccc(S(=O)(=O)NCc3ccncc3)cc2)c(C(F)(F)F)s1`?
MgrA-DNA mod: -1.4

What do the screens show for `Cc1nc(=O)c(-c2ccccc2)c(C)n1-c1ccc(C(=O)O)cc1`?
MgrA-DNA mod: 0.0; S aureus helic: 7

Results for Cc1nc(N=Nc2c(O)[nH]c3ccccc23)c2c3c(sc2n1)CCCC3 ?
S aureus helic: 5

How did COc1ccccc1CCNC(=O)c1cnn2c(C(F)F)cc(C)nc12 do in these assays?
MgrA-DNA mod: 0.0; S aureus helic: -1

What do the screens show for `COC(=O)C(C)n1cnc2c(cnn2-c2ccc(F)cc2)c1=O` (stereo unspecified)?
S aureus helic: 10

What do the screens show for `O=C(CSc1cccc[n+]1[O-])c1ccc(Cl)s1`?
MgrA-DNA mod: 2.0; S aureus helic: -20

What do the screens show for `CC(=O)Nc1cc2c3c(c1)CC(=O)N3CCC2`?
S aureus helic: 9

Results for Cc1ccccc1Cn1cnc2sc(C)c(C)c2c1=O ?
MgrA-DNA mod: -4.4; S aureus helic: 1

Results for Cc1nn(CC(C)C)c(C)c1CC(=O)O ?
S aureus helic: -7

What do the screens show for `O=C(C1CC1)N1N=CCC1(O)C(F)(F)F` (stereo unspecified)?
S aureus helic: 7

How did CC1CN(C(=O)c2ccc3ccccc3n2)CC(C)O1 (stereo unspecified) do in these assays?
S aureus helic: 14

How did CC1(C)CC(=O)OC1(C)C do in these assays?
S aureus helic: 3

How did Cc1ccc(CCC(N)=O)o1 do in these assays?
MgrA-DNA mod: 0.9; S aureus helic: 12

How did O=C(Nc1ccccc1)C1CCN(c2ncnc3c2nc2n3CCCCC2)CC1 do in these assays?
S aureus helic: -15

What do the screens show for `O=C(CCc1c[nH]c2ccccc12)Oc1ccc2c(c1)OCO2`?
S aureus helic: 8

Results for O=C(NC1=C(C(=O)c2ccccc2)N(Cc2ccccc2)S(=O)(=O)c2ccccc21)c1ccccc1 ?
MgrA-DNA mod: 0.9; S aureus helic: 8

What do the screens show for `CN(CC(=O)N(Cc1cccs1)c1ccc2c(c1)OCCO2)Cc1ccco1`?
S aureus helic: -4

Results for O=C(NC1CCS(=O)(=O)C1)c1cccc(C(F)(F)F)c1 (stereo unspecified) ?
S aureus helic: -2

What do the screens show for `CCNC(=S)Nc1c(C)cccc1C`?
MgrA-DNA mod: -2.3; S aureus helic: 11

Results for CCOc1ncccc1C(=O)N(C)Cc1c(C)nn(-c2ccccc2)c1C ?
S aureus helic: 14

How did O=C(NC1CCCCC1)C(c1ccco1)N(C(=O)C1COc2ccccc2O1)c1cccc(F)c1 (stereo unspecified) do in these assays?
MgrA-DNA mod: 2.3; S aureus helic: -1

How did CCOC(=O)CSc1nc2nccnc2c(=O)n1CCc1ccccc1 do in these assays?
MgrA-DNA mod: 0.4; S aureus helic: -10

Results for N=Cc1cc(-c2ccccc2)oc1S ?
MgrA-DNA mod: 11; S aureus helic: 8

Results for FC(F)(F)c1ccc(C2=NCCc3sccc32)cc1 ?
MgrA-DNA mod: -1.2

How did CCc1ccc(NC(=O)COC(=O)C2CCN(c3nc4ccccc4o3)CC2)cc1 do in these assays?
S aureus helic: -10

How did CCN(CC)c1ccc(C(=O)OCC(=O)N2C(C)CCCC2C)cc1 (stereo unspecified) do in these assays?
MgrA-DNA mod: -4.5; S aureus helic: 11

How did O=C(NCCCN1CCCC1=O)c1cccnc1 do in these assays?
MgrA-DNA mod: -3.5; S aureus helic: 6

How did CC(=O)Oc1cc(OC(C)=O)cc(C(=O)O)c1 do in these assays?
MgrA-DNA mod: -3.1

Results for CSc1ncc(C(=O)OCC(=O)c2ccc(NS(C)(=O)=O)cc2)n1-c1ccccc1 ?
S aureus helic: 12

What do the screens show for `CC(C)c1ccc(-c2nn(-c3ccccc3)cc2C(=O)Oc2ccc(-c3nnco3)cc2)cc1`?
S aureus helic: 4

How did CCc1cccc(CC)c1N(COC)C(=O)Cn1c(C(C)O)nc2ccccc21 (stereo unspecified) do in these assays?
S aureus helic: -17

How did CCCCN(CC)C(=O)c1nn(-c2ccc(OC)cc2)c(=O)c2ccccc12 do in these assays?
MgrA-DNA mod: 0.1; S aureus helic: 2

Results for COC(=O)C1=C(C)C(c2cccc(Oc3ccccc3)c2)NC(=O)N1 (stereo unspecified) ?
MgrA-DNA mod: -0.7; S aureus helic: 7

What do the screens show for `Cc1cc(N2CCN(c3ccccc3)CC2)n2nc(C)c(-c3ccc(Cl)cc3)c2n1`?
MgrA-DNA mod: 0.4; S aureus helic: 8

Results for O=C(Nc1ccccc1)Nc1cccc(F)c1 ?
MgrA-DNA mod: 0.4; S aureus helic: 8

Results for COc1ccc(CCNC(=O)Cn2ccc3ccccc3c2=O)cc1OC ?
MgrA-DNA mod: -1.4; S aureus helic: 17

Retrieved by structure from the list above:
Results for CSc1ncc(C(=O)OCC(=O)c2ccc(NS(C)(=O)=O)cc2)n1-c1ccccc1 ?
S aureus helic: 12

How did O=C(NC1CCCCC1)C(c1ccco1)N(C(=O)C1COc2ccccc2O1)c1cccc(F)c1 (stereo unspecified) do in these assays?
MgrA-DNA mod: 2.3; S aureus helic: -1

How did CCOC(=O)CSc1nc2nccnc2c(=O)n1CCc1ccccc1 do in these assays?
MgrA-DNA mod: 0.4; S aureus helic: -10

Results for COC(=O)C1=C(C)C(c2cccc(Oc3ccccc3)c2)NC(=O)N1 (stereo unspecified) ?
MgrA-DNA mod: -0.7; S aureus helic: 7

Going on with the list.
How did Cc1ccc(CS(=O)(=O)Cc2ccc(C(=O)N3CCc4ccccc4C3)o2)cc1 do in these assays?
MgrA-DNA mod: 1.2; S aureus helic: 9

What do the screens show for `CN(C(=O)COC(=O)c1ccccc1O)C1(C#N)CCCCC1`?
S aureus helic: -5

How did CC1=NN(C)c2nc3c(c(=O)n(C)c(=O)n3C)n2C1 do in these assays?
S aureus helic: 12

What do the screens show for `CNc1c(NC(=O)c2ccccc2OC)c(=O)oc2ccccc12`?
S aureus helic: -28

How did CC(C#N)(NC(=O)CN1CCN(C/C=C/c2ccccc2)CC1)C1CC1 (stereo unspecified) do in these assays?
S aureus helic: -10

What do the screens show for `CC(C)CNc1oc(-c2ccccc2)nc1C#N`?
MgrA-DNA mod: -0.4; S aureus helic: -7

What do the screens show for `CCCSc1nc(=O)c2cccnc2n1-c1ccc(OC)cc1`?
MgrA-DNA mod: -0.4

What do the screens show for `O=C(CCCn1c(=O)c2ccc(Cl)cc2n(CC(=O)c2ccc(Cl)cc2)c1=O)NCc1ccco1`?
S aureus helic: 10

How did CCOC(=O)CSc1sc(C(=O)OCC)c(-c2cccs2)c1C#N do in these assays?
MgrA-DNA mod: -2.1

How did N#Cc1ccc(COC(=O)CCSc2ccccc2)cc1 do in these assays?
S aureus helic: -8

Results for CCc1ccc(NC(=O)N(Cc2c[nH]c3ccccc23)C(C)C)cc1 ?
MgrA-DNA mod: 1.2; S aureus helic: -8

What do the screens show for `COc1ccccc1/C=C/C=N\NC(=O)Cc1cccn1C`?
S aureus helic: 10

What do the screens show for `O=C1C2C3C=CC(C3)C2C(=O)N1Cc1ccccc1Cl` (stereo unspecified)?
MgrA-DNA mod: 4.2; S aureus helic: 5

What do the screens show for `CCCNC(=O)c1ccc(COc2ccc3ccccc3c2)cc1`?
S aureus helic: 11

How did O=C1/C(=C/c2cccnc2)SC(=S)N1c1ccc2c(c1)OCCO2 do in these assays?
S aureus helic: 15

Results for Cc1nn(C)c(C)c1Cc1ccc(O)cc1 ?
MgrA-DNA mod: -1.3

What do the screens show for `CCOc1ccc(/C(O)=C/C(=O)C(=O)OC)cc1`?
MgrA-DNA mod: 2.3; S aureus helic: 10

How did COc1ccc(CCN(C)CCCC(C#N)(c2ccc(OC)c(OC)c2)C(C)C)cc1OC (stereo unspecified) do in these assays?
MgrA-DNA mod: 0.4&-2.4&0.2

Results for NC(=O)Cc1nc(-c2ccccc2)cs1 ?
S aureus helic: -16

What do the screens show for `CCC(C)C(=O)N1CCN(c2cccc(Cl)c2)CC1` (stereo unspecified)?
MgrA-DNA mod: 1.2; S aureus helic: -14
